Source: PubChem (National Center for Advancing Translational Sciences (NCATS))
LASV entry inh: inhibitors of Lassa virus binding or cell entry | Lassa virus pseudotype entry inhibition, cell reporter; control for the full effect not named in the record | Potency, µM (titrated, usually from 37.9 µM), for inactives: at the top dose activity change, negative = inhibition, hits mostly inhibitors | 300,000 tested, 1.2% active | AID 540256; active means well fitted inhibition curve with a large enough effect; inconclusive means small, poorly fitted or top-dose-only effect, or effect the other way; inactive means flat fitted curve, though single readings scatter; tested in HEK293 cells; further: on the % scale 0 is the no-effect control and ±100 the full control effect; nearly all actives have a fitted effect of over 50% in size; luciferase read-out
Cruzain inh noDet: inhibitors of Trypanosoma cruzi cruzain without detergent; P25779; 200,000 tested, 2.3% active; Potency, µM, for the others: max response, negative = inhibition, usual class: inhibitors; purified cruzain, Z-FR-AMC fluorescence, no detergent; AID 1476; active means well fitted curve in the direction sought with a large enough effect; inconclusive means small, poorly fitted or top-dose-only effect, or another doubt; inactive means no such curve, though single readings can be large; an effect the other way counts as inactive or inconclusive;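 further: plate controls were enzyme without inhibitor for no effect and buffer without enzyme for full effect; nearly all actives have a fitted effect of over 40% in size; top concentration of the series not given in the record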
Target sequence (P25779 123-467 limits assumed): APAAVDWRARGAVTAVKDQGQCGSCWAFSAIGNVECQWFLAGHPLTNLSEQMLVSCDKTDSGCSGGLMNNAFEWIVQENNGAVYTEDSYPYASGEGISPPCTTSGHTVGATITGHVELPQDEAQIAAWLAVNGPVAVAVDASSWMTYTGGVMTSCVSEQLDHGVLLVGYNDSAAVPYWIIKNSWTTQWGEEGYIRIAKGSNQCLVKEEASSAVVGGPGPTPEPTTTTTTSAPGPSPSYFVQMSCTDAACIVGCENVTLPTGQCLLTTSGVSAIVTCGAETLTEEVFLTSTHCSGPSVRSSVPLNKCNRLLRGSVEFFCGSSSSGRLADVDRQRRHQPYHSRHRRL
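Purified cruzain at 1.5 nM, pre-incubated 15 min with compound at room temperature in 100 mM sodium acetate pH 5.5, 5 mM DTT, 0.00005% Triton X-100. Reaction started with 2 uM Z-FR-AMC; AMC fluorescence increase over 60 s gives rate.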
StopGo reporter: FMDV 2A StopGo reporter, luciferase signal; human cells with a luciferase reporter of 2A StopGo recoding; control for the full effect not named in the record; Potency, µM (top dose mostly 57.9 µM), for the others: at the top dose signal change, negative = less light; 410,000 tested, 1.2% active; AID 1159524; active = well fitted falling curve with a large enough effect; inconclusive = small, poorly fitted or top-dose-only effect; inactive = no such curve, though single readings can be large or run the other way; tested in HEK293T cells; further: on the % scale 0 is the no-effect control and ±100 the full control effect; nearly all actives have a fitted effect of over 45% in size; luciferase light after 4 h
SARS PLpro yeast: SARS-CoV PLP inhibition in yeast. S. cerevisiae expressing SARS-CoV PLpro, growth rescue; control for the full effect not named in the record. Potency, µM (doses to about 32.9 µM), for the others: at the highest dose activity, positive = growth rescue. 330,000 tested, 0.19% active; further: 0% is about no effect; nearly all actives have a fitted effect of over 55% in size; growth read by luminescence after 48 h
Cruzain inh Det: cruzain (T. cruzi) inhibition with detergent; 200,000 tested, 0.43% active; P25779; purified cruzain, Z-FR-AMC fluorescence, 0.01% Triton; Potency, µM, without a hit: max response, negative = inhibition, actives largely listed as inhibitors; active means well fitted curve in the direction sought with a large enough effect; inconclusive means small, poorly fitted or top-dose-only effect, or another doubt; inactive means no such curve, though single readings can be large; an effect the other way counts as inactive or inconclusive;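 further: plate controls were neutral wells for no effect and buffer without enzyme for full effect; nearly all actives have a fitted effect of over 40% in size; top concentration of the series not given in the record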
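In this qHTS format, compounds are incubated with 1.5 nM cruzain for 15 min at room temperature before 2 uM Z-FR-AMC is added. Release of AMC is followed at 360/450 nm, and progress is taken as the 60 s fluorescence difference.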
NS1 inh: blocks influenza NS1 protein function | S. cerevisiae slowed by influenza A NS1, growth recovery by OD600 | Potency, µM (titrated, usually from 46.1 µM), without a hit: top-dose activity, positive = more growth | 270,000 tested, 0.4% active; further: actives are rising curves; nearly all actives have a fitted effect of over 50% in size
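Growth recovery, yeast-based: influenza A NS1 expressed in S. cerevisiae causes slow growth, and suppressors are detected by OD600. The parent strain without NS1 is used as positive control.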
RE007 growth inh: less growth of the S. pombe RE007 Vpr strain; S. pombe RE007 Vpr strain, BacTiter-Glo ATP luminescence, 24 h; control for the full effect not named in the record; Potency, µM (top dose mostly 92.2 µM), for inactives: at the top dose activity change, negative = less growth; 360,000 tested, 0.21% active; AID 651644; active = well fitted falling curve with a large enough effect; inconclusive = small, poorly fitted or top-dose-only effect; inactive = no such curve, though single readings can be large or run the other way;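 further: on the % scale 0 is the no-effect control and ±100 the full control effect; nearly all actives have a fitted effect of over 50% in size; the assay follows cell death caused by Vpr and the record does not say whether a fall means rescue or toxicity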
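Fission yeast RE007 carrying one integrated HIV-1 vpr copy, seeded at OD 0.01 in PMG+AL medium with 23 nL pinned compound. Grown 24 h at 30 degrees; viability read by BacTiter-Glo luminescence after 5 min.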
MARV entry inh: Marburg virus entry inhibition; Potency, µM (doses to about 37.8 µM), for the others: top-dose activity change, negative = inhibition, most hits filed as inhibitors; Marburg virus pseudotyped entry inhibition, cell reporter; control for the full effect not named in the record; about a third of the inactives were read at about 46 µM; 300,000 tested, 1.8% active; active = well fitted inhibition curve with a large enough effect; inconclusive = small, poorly fitted or top-dose-only effect, or effect the other way; inactive = flat fitted curve, though single readings scatter; tested in HEK293 cells; about a fifth of its hits are not listed in these tables; further: on the % scale 0 is the no-effect control and ±100 the full control effect; luciferase read-out
* marks the source's active call; other numbers are inactive results; ? = inconclusive; . = not tested or not shown; & = joins results of further samples; [ ] = remark or other dose. Unless noted, the call rests on the fitted dose curve; in most records, active means well fitted rising curve with a large enough effect; inconclusive means small, poorly fitted or top-dose-only effect; inactive means no such curve, though single readings can be large or run the other way. Potency means the concentration at half of the fitted maximal effect.

SMILES	LASV entry inh	Cruzain inh noDet	StopGo reporter	SARS PLpro yeast	Cruzain inh Det	NS1 inh	RE007 growth inh	MARV entry inh
Cc1ccc(-c2nc(CS(=O)CC(=O)NC(C)CCc3ccccc3)c(C)o2)cc1 (stereo not drawn)	.	.	-24.1%	-8.9%	.	-24.9%	5.9%	.
NC(=O)NC(=O)COC(=O)CNS(=O)(=O)c1ccc(F)c(F)c1F	.	.	-19.3%	0.3%	.	1.5%	6.2%	.
Cc1ccc(C(=O)C(C)OC(=O)c2ccc(Cl)nc2)cc1 (stereo not drawn)	-15.1%	.	-2.3%	3.9%	.	.	17.0%	?
CC(=O)n1cc(N(C(=O)CCl)c2ccc(C)cc2)c2ccccc21	?	.	14.1µM*	-2.1%	.	-5.0%	4.2%	7.08µM*
CCOC(=O)C1=C(c2ccccc2)NC(=S)NC1c1ccc(C)c([N+](=O)[O-])c1 (stereo not drawn)	?	13.1%	?	-1.7%	-4.4%	9.7%	-10.0%	?
C=C(C)CN1C(=O)C(=O)N(CC(=C)C)C1=O	10.4%	.	-12.2%	-1.1%	.	4.8%	42.5%	17.6%[14.2 µM]
CN1CCN(C2CCN(S(=O)(=O)c3ccc(C(C)(C)C)cc3)CC2)CC1	-9.2%	.	-12.4%	-25.4%	.	-3.5%	-8.1%	-25.8%[46.1 µM]
CSC1=NNC(c2ccc(C(C)(C)C)cc2)=NN1	.	.	59.5%[activator]	-6.3%	.	-40.8%	3.5%	.
Cc1cc(=O)[nH]c(SCc2cccc3cccnc23)n1	.	.	26.5%	-11.2%	.	.	23.3%	13.4%[46.1 µM]
O=C(NCC1COc2ccccc2O1)c1ccc(NC(=O)C2CCCO2)cc1 (stereo not drawn)	0.2%	-11.9%	31.6%[activator]	?	6.9%	-11.0%	12.1%	-0.7%
O=C(COC(=O)C1CCCCC1)Nc1ccc(S(=O)(=O)N2CCOCC2)cc1	-12.7%	.	3.0%	4.4%	.	.	13.3%	10.8%
N#Cc1ccccc1OCCCN1CCC(Cc2ccccc2)CC1	.	.	-11.7%	-2.7%	.	-9.5%	-18.0%	.
Cn1cccc1/C=N/NC(=O)c1ccncc1	8.1%[46.1 µM]	.	24.1%	-1.2%	.	0.1%	-0.3%	5.7%[46.1 µM]
O=C(CN1C(=O)C(=O)N(Cc2ccccc2)C1=O)Nc1cc(Cl)cc(Cl)c1	-10.3%	.	31.0%[activator]	-0.8%	.	5.0%	7.9%	?
Cc1ccccc1CC(=O)N(CCN(C)C)CC1CCCN(Cc2ccccc2F)C1 (stereo not drawn)	?	.	2.2%	2.2%	.	9.1%	-6.4%	?
CN1CCN(C(=O)/C(=C/c2ccc([N+](=O)[O-])cc2)NC(=O)c2ccccc2)CC1	.	.	38.3%[activator]	-1.1%	.	9.7%	-5.0%	0.2%[46.1 µM]
COc1cccc(-c2noc(C3CCCN(C(=O)Cc4ccccc4)C3)n2)c1 (stereo not drawn)	-21.7%	12.9%	67.6%[activator]	-2.8%	-0.4%	-9.7%	-14.0%	-2.3%
COc1ccc(NC(=O)Cn2nc(C(=O)O)c3ccccc3c2=O)cc1Cl	.	.	-7.1%	-2.6%	.	-9.3%	14.4%	?
CC(=O)Nc1ccc(S(=O)(=O)NCCC(=O)NNC(=O)c2ccccc2O)cc1	-9.9%	.	-10.7%	5.1%	.	.	-4.0%	-0.8%
CC(NC(=O)OC(C)(C)C)C(=O)NC(CCC(=O)OCc1ccccc1)C(N)=O (stereo not drawn)	-4.4%	.	-2.9%	0.8%	.	.	3.6%	10.0%[46.1 µM]
CC1CCCN(c2ccc(C(=O)Nc3ccc4c(c3)OCO4)cc2[N+](=O)[O-])C1 (stereo not drawn)	?	8.2%	?	-8.2%	-4.5%	28.2%	5.5%	?
CCN(CC)S(=O)(=O)c1cccc(-c2nnc(SC(C)C(=O)NCCC3=CCCCC3)o2)c1 (stereo not drawn)	?	13.0%	?	-9.9%	-6.9%	-6.5%	-3.7%	0.9%&0.9%
Nc1c(C(=O)NCc2ccccc2)nnn1Cc1cccc(Br)c1	?	?	1.0%	.	0.6%	.	.	-19.0%[46.1 µM]
CN1C=CC(=C2C(=O)c3ccccc3C2=O)C=C1	.	-13.2%	.	-10.3%	-4.1%	3.0%	.	1.0%
O=C1NCCN(Cc2ccc(-c3ccccc3)cc2)C1CC(=O)N1CCN(CCO)CC1 (stereo not drawn)	1.3%	.	-14.3%	-1.2%	.	-2.7%	-9.6%	8.2%[46.1 µM]
CN1CCN(/N=C/c2nc(-c3cccc([N+](=O)[O-])c3)n3ccccc23)CC1	-1.7%	-20.0%	?	21.9%	-7.4%	8.9%	2.6%	-8.9%
Cc1ccc(C(=O)CSc2nnc(-c3ccco3)n2CC2CCCO2)cc1 (stereo not drawn)	13.9%	12.3%	-2.2%	-3.1%	-7.1%	-8.6%	-3.8%	3.7%
O=S(=O)(NCC(c1ccco1)N1CCOCC1)c1cc(F)ccc1F (stereo not drawn)	4.5%[46.1 µM]	-1.0%	1.5%	.	-0.5%	.	.	.
CCOC(=O)C1CCN(Cc2nc3ccccc3c(=O)n2-c2ccc(OCC)cc2)CC1	?	-11.4%	1.1%	-9.0%	4.1%	15.0%	-2.6%	-14.9%
Cc1cc(C)cc(OCC(=O)Nc2ccccc2C(=O)N2CCOCC2)c1	-9.9%	.	-6.5%	-9.2%	.	-3.0%	-1.0%	2.8%[46.1 µM]
O=C(CCC(=O)N1CCOCC1)NCCc1ccc(F)cc1	-1.1%	.	-16.7%	-3.6%	.	.	28.1%	-25.4%
COc1ccnc(N=CNOCc2ccc(F)cc2Cl)c1C#N	9.6%	-5.4%	6.2%	1.9%	-2.6%	3.4%	-14.9%	?
O=C(Nc1ccc2ccccc2c1)c1ccc2[nH]c(=O)c(=O)[nH]c2c1	.	.	14.1%	-0.8%	.	8.3%	-7.6%	.
COC(=O)c1ccc(OC(=O)c2ccccc2F)cc1	-10.9%	13.1%	.	8.0%	-3.7%	-4.6%	.	-11.1%
Cn1nc(-c2ccc(OCC(=O)Nc3cccnc3)cc2)c2ccccc2c1=O	-4.2%	2.4%	35.5µM*	3.7%	1.8%	-0.3%	10.0%	-12.7%&-12.7%
CN(CC(=O)NCc1ccco1)CC(=O)Nc1cc(S(C)(=O)=O)ccc1Cl	5.5%	.	-14.1%	-0.5%	.	.	6.1%	13.2%[46.1 µM]
COc1ccc(C(=O)NCC(=O)OCC(=O)Nc2ccc(C)c(S(=O)(=O)N(C)C)c2)cc1OC	.	.	56.5%[activator]	-0.4%	.	-9.6%	-12.3%	.
CC(C)[C@H](NC(=O)c1ccco1)C(=O)OCC(=O)NC12CC3CC(CC(C3)C1)C2	6.6%	.	-20.4%	5.5%	.	.	8.9%	6.3%
CN(C(=O)c1cccc(C(=O)N(C)c2ccccc2)c1)c1ccccc1	.	.	-11.4%	-6.1%	.	0.2%	10.8%	.
FC(F)(F)c1ccc2c(c1)N(CCCN1CCN(CCCl)CC1)c1ccccc1S2	?	-0.7%	11.2µM*	-1.4%	?	9.0%	26.9%	20µM*
N#CC1(Nc2ccc(S(N)(=O)=O)cc2)CCCC1	8.5%	.	1.8%	.	.	.	-0.8%	12.9%
Cc1ccccc1CC1C(=O)Nc2ccc(Br)cc21 (stereo not drawn)	-4.4%[46.1 µM]	-10.0%	-8.1%	.	-12.6%	.	.	-1.2%[46.1 µM]
O=C(CN1c2cccc3cccc(c23)S1(=O)=O)Nc1cccc(S(=O)(=O)N2CCOCC2)c1	-3.4%	-16.0%	4.8%	8.6%	-7.6%	?	.	?
COc1ccc2c(c1)c1c(c(=O)n(-c3ccccc3C)c(=O)n1Cc1ccccc1C)n2C	17.2%[46.1 µM]	10.7%	-7.5%	.	-1.4%	.	.	.
CN1CCCC(n2nc(Cc3ccc(Cl)cc3)c3ccccc3c2=O)CC1 (stereo not drawn)	.	-9.5%	?	.	4.0%	.	-14.0%	.
COC(=O)c1ccccc1NC(=O)N1CCc2ccc(NC(=O)c3ccccn3)cc2C1	-29.8%	.	9.6%	1.3%	.	2.5%	-14.2%	?
Cc1ccc2[nH]c3c(NCCN4CCOCC4)ncnc3c2c1	?	20µM*	60.2%[activator]	-0.4%	-26.2%	4.2%	2.7%	1.4%&1.4%
CCn1c2ccccc2c(=O)c2ccccc21	7.9%[46.1 µM]	.	-11.9%	-0.2%	.	-0.4%	-14.1%	1.7%&1.7%[46.1 µM]
O=C(Nc1nc2ccsc2c(=O)s1)c1ccc(F)cc1Cl	17.6%	.	41.2%	0.1%	.	-2.7%	-4.8%	?
COc1ccc(OC)c(S(=O)(=O)NCc2cn3c(C)csc3n2)c1	.	-13.3%	11.5%	-0.6%	1.2%	?	5.8%	.
N#C/C(=C/c1cccn1-c1cccc(C(=O)O)c1)c1ccc(F)cc1	.	.	-6.4%	-0.1%	.	11.5%	2.9%	.
O=C(OC1CCCCC1)c1ccc(NC(=O)C2CCCCC2)cc1	?	-6.6%	-24.0%	-6.0%	4.4%	-6.7%	2.1%	?
CCOC(=O)c1nn(-c2ccccc2)c(=O)cc1SC1CCCCC1	-2.6%	.	8.2%	1.5%	.	6.8%	-16.3%	0.5%[14.2 µM]
O=C(Nc1ccc(Cl)cc1)c1csc(-c2ccccc2)n1	-2.2%	2.0%	0.0%	-14.3%	3.0%	-12.0%	8.8%	-27.8%
Cc1ccc(CN(C)C(=O)CCc2c[nH]c3ccccc23)o1	?	.	3.6%	-7.5%	.	-2.0%	-8.0%	-12.2%[46.1 µM]
O=C(Nc1c(C(=O)N2CCC(N3CCCCC3)CC2)oc2ccccc12)c1c(F)cccc1F	28.8%[46.1 µM]	-11.0%	-5.8%&-13.0%	-3.6%	-1.0%	-5.2%	-7.2%	.
COC(=O)c1ccc(CN2CCC(CO)(Cc3ccc(OC)cc3)CC2)cc1	1.8%	.	?	-2.6%	.	-4.1%	-9.8%	-3.5%[46.1 µM]
CCC(C)n1c(/C=C/c2ccccc2)nc2ccccc21 (stereo not drawn)	-4.5%	-24.9%	16.3%	-16.6%	-17.9%	-40.3%	-25.7%	13.0%
